D2 PAM – positive allosteric modulators of human D2 dopamine receptor; P14416; DiscoveRx D2 beta-arrestin cells, luminescence, 90 min; 100% = 57 uM dopamine signal; potentiation, % (no concentration beside the values); hit rate 0.23% among 360,000; AID 624464; active = potentiation of 50% or more; inconclusive = 30% to 50%; inactive = 30% or less;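 further: compound concentration not given in the record; tested on top of an EC20 dose of dopamine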
Target sequence (P14416 whole entry, looked up): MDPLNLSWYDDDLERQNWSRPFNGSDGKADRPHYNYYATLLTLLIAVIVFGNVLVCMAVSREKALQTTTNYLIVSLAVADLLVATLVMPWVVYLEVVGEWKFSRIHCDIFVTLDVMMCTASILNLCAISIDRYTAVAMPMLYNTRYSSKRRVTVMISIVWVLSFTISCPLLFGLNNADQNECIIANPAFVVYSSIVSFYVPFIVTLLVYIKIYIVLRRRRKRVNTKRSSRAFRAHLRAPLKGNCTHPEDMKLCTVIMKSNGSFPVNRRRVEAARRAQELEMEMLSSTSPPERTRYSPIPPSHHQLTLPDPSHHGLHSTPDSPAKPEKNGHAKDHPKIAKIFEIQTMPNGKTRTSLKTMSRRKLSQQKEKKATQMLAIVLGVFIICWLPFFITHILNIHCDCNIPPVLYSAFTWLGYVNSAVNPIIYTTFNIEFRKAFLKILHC
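D2 cells co-treated with compound plus 50 nM dopamine (EC20) for 90 min at 37 deg C to detect potentiation. Beta-arrestin recruitment was read as enzyme-fragment luminescence after 1 h at ambient temperature. Full response was set by 57 uM dopamine.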
Six1-Eya2 blk – inhibitors of human Six1/Eya2 interaction | Q15475+O00167 | AlphaScreen GST-Six1/His-Eya2 binding, biochemical; stronger effect = lower value; control for the full effect not named in the record | activity change, % (no concentration beside the values) | hit rate 0.56% among 360,000 | AID 651725; in the data active = activity change below about -65%; inconclusive = about -30% to -65%; inactive = above about -30%; further: on the % scale 0 is the no-effect control and ±100 the full control effect; compound concentration not given in the record
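Homogeneous AlphaScreen proximity assay pairing GST-Six1 with His-tagged Eya2 (added as 5X mix: 250 nM and 500 nM) in 50 mM Tris pH 8.0, 300 mM NaCl, 1 mM TCEP. Glutathione donor and nickel acceptor beads; 1 h, 37 °C, dark.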
CtBP-E1A inh – CtBP/E1A binding inhibition | AlphaScreen GST-E1A/His-CtBP binding, 1536-well; stronger effect = lower value; control for the full effect not named in the record | activity change, % (no concentration beside the values) | hit rate 0.49% among 340,000 | AID 651724; in the data active means activity change below about -65%; inconclusive means about -30% to -65%; inactive means above about -30%; further: on the % scale 0 is the no-effect control and ±100 the full control effect; compound concentration not given in the record
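In 5 uL wells, 23 nL compound meets equimolar GST-E1A and His-CtBP (5X stock 125 nM each) for 2 h, 37 °C. Beads (5X, 50 ug/mL) then 1 h, 37 °C, dark.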
gsp antag – antagonizes gsp, the McCune-Albright syndrome mutation. gsp-mutant cells, cAMP HTRF, 30 min; control for the full effect not named in the record. Potency, µM (top dose mostly 76.9 µM), without a hit: at the top dose activity change, negative = inhibition, actives largely listed as inhibitors. hit rate 0.4% among 340,000. AID 624288; active = falling curve of any shape with a large fitted effect; inconclusive = falling curve, mostly with a smaller effect; inactive = flat or rising curve; cell line not stated here;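 further: intracellular cAMP measured with PDE inhibitor Ro 20-1724 present during compound exposure; potency means the concentration at half of the fitted maximal effect; on the % scale 0 is the no-effect control and ±100 the full control effect; nearly all actives have a fitted effect of over 65% in size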
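HTRF cAMP measurement after 30 min RT detection following 30 min, 37C compound treatment alongside […] (added as 300 uM solution) in G418-selected cells seeded at 2000/well and grown 16–24 h.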
D2 ag – activates the human D2 dopamine receptor | P14416 | DiscoveRx PathHunter D2 beta-arrestin, luminescence, 90 min; 100% = 57 uM dopamine signal | activation, % (test concentration not listed) | hit rate 0.084% among 360,000 | AID 624465; in the data active = activation above about 40%; inconclusive = about 15% to 40%; inactive = below about 15%; further: compound concentration not given in the record; the text of the record calls up to 30% inactive
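DiscoveRx PathHunter D2 beta-arrestin cells (2,100/well) attached overnight, then compound-stimulated 90 min at 37 C in HBSS/10 mM HEPES/0.1% Tween-20 buffer; beta-galactosidase complementation read by luminescence after 1 h at ambient temperature. Dopamine 57 uM final (EC100) as control.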
gsp ag – agonists of gsp mutant (McCune-Albright syndrome); gsp mutant cells, cAMP HTRF, 30 min; control for the full effect not named in the record; Potency, µM (series often up to 76.9 µM), without a hit: at the top dose activation (cAMP increase), most hits filed as activators; hit rate 0.13% among 340,000; active = well fitted activation curve with a large enough effect; inconclusive = small, poorly fitted or top-dose-only effect, or another doubt; inactive = no such curve, though single readings can be large or run the other way; cell line not stated here;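 further: phosphodiesterase inhibitor Ro 20-1724 added with compounds to block cAMP breakdown; potency means the concentration at half of the fitted maximal effect; nearly all actives have a fitted effect of over 60% in size; about a fifth of the inactives were tested at one dose only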
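Cells stably selected in G418 were plated at 2000/well, grown 16-24 hr, then given compounds in DMSO with the PDE inhibitor […] (300 uM solution added) for 30 min at 37C; cAMP was read by HTRF.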
Numbers without * were called inactive; u = inconclusive; x = no result given; [ ] = remark or other dose.

The first three entries (preview)
SMILES | D2 PAM | Six1-Eya2 blk | CtBP-E1A inh | gsp antag | D2 ag | gsp ag
CCOCCCNC(=O)C1CCCN(S(=O)(=O)CC)C1 (stereo not drawn) | -9 | 2 | 3 | 3% | -0.4 | 2%
CCCCC(=O)NC(Nc1nc(C2CC2)cs1)(C(=O)OCC)C(F)(F)F (stereo not drawn) | -7 | 2 | -4 | -9% | -3.6 | -36%[inhibitor]
CCC(CC)C(=O)Nc1cccc(C(=O)c2ccccc2)c1 | -10 | -1 | -5 | -17% | -4.3 | 9%

The whole of this part, previewed entries included:
SMILES | D2 PAM | Six1-Eya2 blk | CtBP-E1A inh | gsp antag | D2 ag | gsp ag
CCOCCCNC(=O)C1CCCN(S(=O)(=O)CC)C1 (stereo not drawn) | -9 | 2 | 3 | 3% | -0.4 | 2%
CCCCC(=O)NC(Nc1nc(C2CC2)cs1)(C(=O)OCC)C(F)(F)F (stereo not drawn) | -7 | 2 | -4 | -9% | -3.6 | -36%[inhibitor]
CCC(CC)C(=O)Nc1cccc(C(=O)c2ccccc2)c1 | -10 | -1 | -5 | -17% | -4.3 | 9%
COCCCN1C(=O)c2[nH]nc(-c3ccccc3O)c2C1c1ccc(Cl)cc1 (stereo not drawn) | 6 | -4 | -5 | u | -0.5 | 22%
COCCCNC(=O)C1CC(=O)N(CCc2ccccc2)C1 (stereo not drawn) | -8 | 0 | 0 | 14% | -1.6 | 23%
Cc1cccc(Nc2c([N+](=O)[O-])c(=O)oc3ccccc23)c1 | -18 | -5 | 6 | -6% | -4.1 | 16%[15.4 µM]
Cc1ccc(S(=O)(=O)c2cccc(S(=O)(=O)N3CCOCC3)c2)cc1S(=O)(=O)N1CCOCC1 | -10 | -1 | 6 | -23% | -3.3 | -6%
COCCC(=O)NC12CC3CC(CC(C3)C1)C2 | -5 | 3 | 13 | 0% | -2.0 | 28%
Cc1ccc(OCC(=O)N(C)CC(=O)N(CC(C)C)c2c(N)n(CC(C)C)c(=O)[nH]c2=O)c(C)c1 | -11 | -1 | 0 | 9% | -1.6 | -1%
O=C(Nc1cc(S(=O)(=O)N2CCCCC2)ccc1N1CCCCC1)C1CC1 | -7 | -3 | x | -19% | -1.0 | 5%
CCC(=O)NC(Nc1sc2c(c1C(=O)OC)CCN(C)C2)(C(F)(F)F)C(F)(F)F | -17 | -1 | -4 | 13% | 0.8 | u
COC(=O)Cc1cc(=O)oc2cc(OC)ccc12 | 0 | 5 | 9 | 7% | -2.4 | -27%
CCOc1cccc(C(=O)Nc2ccccc2OC(F)F)c1 | 5 | 29 | 16 | -3% | -0.4 | 7%
CCCS(=O)(=O)NC(=O)C1(C)CCCN(C(=O)c2ccc3c(c2)OCO3)C1 (stereo not drawn) | -5 | 18 | 2 | x | -5.7 | x
COc1ccc2nc3c(cc2c1)c(NC(=O)c1cccs1)nn3CC(C)C | u | 63 | 43 | -23% | 2.5 | -2%
COc1ccccc1/C=C/C1C(C(=O)OCC(C)C)=C(C)N=C2SCCC(=O)N21 (stereo not drawn) | 2 | -3 | 8 | -40% | 1.2 | -13%[15.4 µM]
CC(C)Oc1ccccc1NC(=O)CSc1nc2ccccc2c(=O)n1C | 12 | 12 | x | u | 3.3 | -35%[inhibitor]
CCC(C)N(C(=O)COc1ccc(-c2nnco2)cc1)C1CCS(=O)(=O)C1 (stereo not drawn) | 1 | 3 | 9 | 7% | 6.3 | -5%[15.4 µM]
C=CCNC(=O)CNS(=O)(=O)c1ccc(F)cc1 | -7 | 1 | 17 | 5% | -3.0 | -12%
COc1ccccc1/C=C/CN1CCC(Oc2ccc(C(=O)N3CCCC3)cc2)CC1 | -33 | -4 | 3 | 9% | -0.9 | -8%[15.4 µM]
C/C(=N\NC(=O)c1c(Cl)cnn1C)c1cccc(NC(=O)C(C)C)c1 | 3 | 0 | 2 | 21% | -3.6 | -7%
COc1ccc(C(=O)C2CCCN(C(=O)c3ccnn3C)C2)c(C)c1 (stereo not drawn) | 7 | 0 | -3 | 6% | -1.1 | -53%[inhibitor]
COC(=O)Nc1[nH]ncc1[N+](=O)[O-] | 1 | 21 | 0 | -24% | -4.9 | -9%[15.4 µM]
COc1ccccc1C(=O)NC(CCSC)C(=O)OCC(=O)NC(=O)NCc1ccco1 (stereo not drawn) | 3 | -5 | 3 | -14% | -6.0 | -38%[inhibitor]
OCC1(Cc2cccc(Cl)c2)CCCN(Cc2ccc(F)c(F)c2)C1 (stereo not drawn) | -11 | 2 | 5 | 1% | 4.6 | 6%[15.4 µM]
O=C(Nc1ccc(NC(=O)c2cc3ccccc3o2)cc1)c1ccco1 | -2 | 8 | -9 | -12% | 2.1 | 3%[15.4 µM]
Fc1ccc2c(c1)C(c1ccncc1)=NNC(c1ccc(Br)cc1)=N2 | -14 | -9 | 0 | 4% | -0.3 | 17%
CC(=O)NC(Cc1ccccc1)C(=O)N1CCN(C(=O)c2ccco2)CC1 (stereo not drawn) | -4 | 5 | 9 | 4% | -2.3 | -44%
COc1ccccc1NC(=O)NNC(=O)COc1ccc2ccccc2c1 | -10 | -3 | -1 | -16% | 0.0 | u
NC(=O)c1ccc2nc(-c3ccccc3)c(-c3ccccc3)nc2c1 | -9 | 1 | x | -11% | 1.3 | 4%

Part of the list above, with each value named:
Cc1ccc(OCC(=O)N(C)CC(=O)N(CC(C)C)c2c(N)n(CC(C)C)c(=O)[nH]c2=O)c(C)c1
  D2 PAM: -11
  Six1-Eya2 blk: -1
  CtBP-E1A inh: 0
  gsp antag: 9%
  D2 ag: -1.6
  gsp ag: -1%

O=C(Nc1cc(S(=O)(=O)N2CCCCC2)ccc1N1CCCCC1)C1CC1
  D2 PAM: -7
  Six1-Eya2 blk: -3
  CtBP-E1A inh: x
  gsp antag: -19%
  D2 ag: -1.0
  gsp ag: 5%

CCC(=O)NC(Nc1sc2c(c1C(=O)OC)CCN(C)C2)(C(F)(F)F)C(F)(F)F
  D2 PAM: -17
  Six1-Eya2 blk: -1
  CtBP-E1A inh: -4
  gsp antag: 13%
  D2 ag: 0.8
  gsp ag: u

COC(=O)Cc1cc(=O)oc2cc(OC)ccc12
  D2 PAM: 0
  Six1-Eya2 blk: 5
  CtBP-E1A inh: 9
  gsp antag: 7%
  D2 ag: -2.4
  gsp ag: -27%

The listing continues:
SMILES | D2 PAM | Six1-Eya2 blk | CtBP-E1A inh | gsp antag | D2 ag | gsp ag
CC(=O)C1CCC2C3CC(C)C4(O)CC(=O)CCC4(C)C3C(O)CC12C (stereo not drawn) | -18 | -1 | -3 | 4% | -2.9 | 18%[15.4 µM]
N#Cc1ccc(NC(=O)CN2C(=O)NC(Cc3ccccc3)C2=O)cc1 (stereo not drawn) | 0 | 9 | -6 | 5% | 0.0 | -9%
O=C(CN(C(=O)CSc1nnc(COc2ccccc2)o1)c1ccc(F)cc1)NC1CCCC1 | -7 | 2 | 9 | -6% | -0.2 | -26%
CN(C)/C=C/C(=O)c1ccc([N+](=O)[O-])c(CS(=O)(=O)c2ccc(Cl)cc2)c1 | 2 | -4 | 2 | -15% | 7.1 | 0%
COc1ccccc1Nc1nc(N)nc(CSc2nccn2C)n1 | -1 | 0 | 2 | 17% | -2.0 | -4%
COc1cc(SC)ccc1C(=O)OCC(=O)NCC(C)C | -8 | 4 | -25 | 1% | -2.0 | 0%[15.4 µM]
O=C(CCn1c(=O)[nH]c2ccccc2c1=O)Nc1ccccc1 | -7 | -1 | 4 | 4% | -4.2 | 4%
Cc1cc(C)c(C)c(OCCNCc2ccccc2)c1 | -12 | 1 | 3 | -2% | 3.9 | 14%[15.4 µM]
O=c1[nH]c(SCc2ccccc2Cl)nc2c1CCC2 | -6 | -1 | 9 | -5% | -1.3 | 6%
O=C(Nc1ccccc1OC(F)F)c1ccccc1 | 4 | 6 | 1 | 8% | -2.8 | 8%
O=C(O)[C@@H]1CCCN1C(=O)CCc1c[nH]c2ccccc12 | -3 | 3 | 0 | 11% | 8.9 | 4%
Cc1ccc(S(=O)(=O)N2CCOCC2)cc1NC(=O)COc1ccc(-c2nnco2)cc1 | -24 | -3 | 3 | -16% | -1.8 | -1%[15.4 µM]
CCc1cccc(N=c2c([N+](=O)[O-])nn(-c3ccc(Cl)cc3)n2O)c1 | 87* | u | u | -19% | 10 | -16%
O=C(CCCOc1ccccc1)Nc1cc(S(=O)(=O)N2CCOCC2)ccc1N1CCOCC1 | -13 | -3 | 6 | -10% | -5.6 | 7%
O=C(c1ccccc1)c1ncc(C(F)(F)F)cc1Cl | -5 | 6 | 15 | -4% | 1.1 | 18%
COC(=O)CN1C(=O)N/C(=C/c2ccccc2OC)C1=O | 13 | 6 | 0 | 5% | -3.3 | 1%[15.4 µM]
c1ccc(CCC2CCCCN2Cc2nc(C3CC3)no2)cc1 (stereo not drawn) | -7 | 11 | x | 6% | -1.9 | -43%[inhibitor]
Cc1sc2ncnc(NC3CCN(Cc4ccccc4)CC3)c2c1C | -17 | -22 | -13 | -14% | 0.9 | -9%[15.4 µM]
Cc1[nH]n(C(N)=S)c(=O)c1N=Nc1ccc(S(=O)(=O)N2CCCCCC2)cc1 | -23 | -18 | -12 | u | -7.1 | 8%
Cc1ccc(S(=O)(=O)N2[C@@H](c3ccc(C(C)(C)C)cc3)C(C(=O)O)=CC[C@H]2c2ccc(Cl)c(Cl)c2)cc1 | x | 7 | 5 | 4% | -0.3 | x
